PrP 5UTR inh = inhibition of PrP 5' UTR reporter expression; inhibition, % (no concentration beside the values); 340,000 compounds, 0.35% hits; cell-based PrP 5' UTR mRNA reporter, plate reader; AID 488862;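 active = every replicate at 50% or more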;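 note: 0 = median of the neutral control wells; tested in H4 reporter cells; numbers are from one replicate; inactives centre near -14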
Mtb hypoxia inh = Mtb hypoxia fluorescent reporter inhibition | M. tuberculosis hypoxia-regulated fluorescent reporter, fluorescence | fluorescence inhibition, % (concentration not given with the values) | 300,000 compounds, 0.1% hits;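 active = 35 to 45% if threefold the growth effect, above 45% if 1.5-fold the growth effect; inactive = the rest, general growth blockers included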;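 note: wells of about 50 µL received 100 nL stock; 0% = vehicle wells and 100% = reference inhibitor wells; whole bacteria with a GFP reporter of the hypoxia response; strong numbers were not always called active; many hits fall short of the cut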
Sa RN4220 lethal = kills Staphylococcus aureus RN4220. AID 1259311. S. aureus RN4220 growth, OD600, 16 h. 330,000 compounds, 0.33% hits. inhibition, % (concentration not given with the values);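 active = z-score of -3 or lower and OD600 up to 0.18 on both plates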;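 note: plate controls were untreated cells for no effect and reference antibiotic for full effect; stock transfer was 100 nL into about 80 µL; one replicate is shown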
Bead autofluor = compound fluorescence in toxin protease inhibitor counterscreen | AID 624483 | compound autofluorescence counterscreen, microsphere flow cytometry; stronger effect = higher value | fluorescence intensity (test concentration not listed) | 360,000 compounds, 3.1% hits;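 active = at least 3 SD above the mean of all compounds, about 16000 in these data; inconclusive = too few beads counted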;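 note: 100 nL of 1 mM stock went into each well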
Sa ugtP lethal = growth inhibition of S. aureus ugtP deletion strain | S. aureus RN4220 ugtP deletion, OD600 growth, 16 h; some inactives read as strong as hits | growth inhibition, % (no concentration beside the values) | 330,000 compounds, 0.54% hits;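 active = z-score under -3 and OD600 up to 0.15 on both plates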;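 note: plate controls were untreated wells for no effect and antibiotic for full effect; wells of about 80 µL received 100 nL stock; the first replicate is given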
BJeLR viability = kills HRASV12-expressing BJeLR cells; AID 1554; BJeLR (HRASV12) viability, CellTiter-Glo ATP luminescence, 48 h; reference of the scale not given here; 300,000 compounds, 0.17% hits; inhibition, % (concentration not given with the values);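 active = replicate mean above 50%; inconclusive = above 50% but judged a plate artefact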;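 note: 50 nL library stock added to about 25 µL; numbers are from one replicate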
Mtb hypoxia inh growth = further read-out of Mtb hypoxia inh, marked with its call; growth inhibition, %; measured here: M. tuberculosis growth (absorbance);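 0% = vehicle and 100% = reference antibiotic; read after six days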
* = called active by the depositor; u = inconclusive; x = no result given; & = joins results of further samples.

SMILES	PrP 5UTR inh	Mtb hypoxia inh	Mtb hypoxia inh growth	Sa RN4220 lethal	Bead autofluor	Sa ugtP lethal	BJeLR viability
Cc1cc(OCC(=O)OCC(=O)NCc2cccs2)ccc1Cl	2	4	4	4.1	3860	12	x
Clc1ccc(OCCCCCN2CCCC2)c(Br)c1	-1	23	13	2.4	2403	3	2
C=CCN1C(=O)N(c2ccc(F)cc2)C(=O)C1CC(=O)Nc1ccc(Cl)cc1 (stereo not given)	-20	0	9	4.2	4611	7	-2
CCOc1ccccc1N1CCN(C(=O)CCCN2C(=O)c3cccc4cccc(c34)C2=O)CC1	-21	8	11	5.1	2464	-2	9
COc1ccc(CNC(=O)/C=C/c2ccc(S(=O)(=O)N3CCOCC3)cc2)cc1	-18	-10	-2	1.7	3298	5	-3
CC(=O)n1nc(-c2ccccc2)nc1NCc1cccs1	-56	-3	16	7.5	3926	3	-6
COC(=O)C1=C(c2ccc(OC)c(OC)c2)CC2CCC1N2C(=O)N1CCC(O)CC1 (stereo not given)	x	4	4	1.9	x	2	x
COc1cccc(NC(=O)NC(=O)c2c(C)cc(Cl)nc2Cl)c1	3	4	6	1.9	4968	-1	6
Cc1nc2ccccc2nc1OCc1ccc([N+](=O)[O-])cc1	-15	-3	7	4.6	2690	5	-7
O=C(COC(=O)c1cc(Cl)cc(Cl)c1)NCCN1C(=O)CSC1=O	-13	5	4	2.7	2371	1	-11

No new results follow: an excerpt of the list.
SMILES	PrP 5UTR inh	Mtb hypoxia inh	Mtb hypoxia inh growth	Sa RN4220 lethal	Bead autofluor	Sa ugtP lethal	BJeLR viability
Cc1cc(OCC(=O)OCC(=O)NCc2cccs2)ccc1Cl	2	4	4	4.1	3860	12	x
Clc1ccc(OCCCCCN2CCCC2)c(Br)c1	-1	23	13	2.4	2403	3	2

(further entries)
SMILES	PrP 5UTR inh	Mtb hypoxia inh	Mtb hypoxia inh growth	Sa RN4220 lethal	Bead autofluor	Sa ugtP lethal	BJeLR viability
C=CCCC(Cc1ccc(F)cc1)C(=O)OCC1CCCN1C(=O)C(CC=C)CC(=O)NC(CO)Cc1ccccc1 (stereo not given)	x	6&4&2	6&4&12	-0.7&3.8&2.3	x	8&-28&-10	x
COc1ccc(N2CCN(C(=O)COC(=O)c3ccc(Cl)nc3)CC2)cc1	2	6	8	2.9	8467	3	x
O=C1CCCN2N=C(SCC(=O)Nc3cccc(F)c3)SC2=N1	-15	-2	-4	5.5	5917	-1	-2
O=C(NCCOc1ccccc1)c1ccc2c(c1)OCO2	46	8	5	2.9	11045	6	-2
CCNC(=O)C(=O)c1c(-c2ccccc2)[nH]c2ccccc12	21	-2	-3	4.6	4344	3	5
COc1cccc(NC(=O)CN(C)C(=O)c2cc3c(s2)CCC(C)C3)c1 (stereo not given)	-10	-1	-3	4.1	u	-1	-21
COc1ccc2cc(-c3csc(-c4cccnc4)n3)ccc2c1	-73	x	x	-3.6	2809	-16	-4
Cc1c(C)n(C(=O)CSc2nncn2C)c2ccccc12	-16	7	8	3.6	2882	-2	6
Cc1cccc(OCC(=O)Nc2nonc2NC(=O)COc2cccc(C)c2)c1	-12	4	-1	4.5	5925	-5	9
CN(C)CCn1nnc2c(=O)oc3ccccc3c21	-3	0	-16	2.1	2203	1	x
Cc1[nH]c2ccccc2c1/C=N/NC(=O)c1cc(-c2cccs2)[nH]n1	-46	x	x	x	2339	x	-5
COc1ccc(-c2nnco2)cc1OC	-3	0	-4	-1.1	4487	-1	-2
CC(=O)N=c1sc2c3ccccc3ccc2n1C	-10	2	-2	2.9	12787	0	-2
O=C(CCC1CCCC1)N1CCN(C(=O)c2ccco2)CC1	-34	x	x	-0.5	4737	-5	1
Cc1nc2c(C)cccc2cc1C(=O)N/N=C/c1ccc(C(=O)O)cc1	-19	x	x	x	4756	x	-1
CCc1nc2ccc(C(=O)N3CCN(CC)CC3)cc2nc1CC	-23	1	-11	-2.6	4287	2	-2
Clc1ccc(Cl)c(-c2nc(-c3ccncc3)no2)c1	-51	7	5	1.9	3065	9	-11
O=C(O)c1ccc2c(c1)nnn2C1CCCCC1	-12	x	x	-0.4	2580	8	6
Cc1ccc(S(=O)(=O)CN=C(NC(=S)N(c2ccccc2)c2ccccc2)c2ccccc2)cc1	x	6	9	-0.3	x	59	x
Cc1cc(C)cc(NC(=S)NCCCN2CCOCC2)c1	-12	-4	4	0.3	2469	15	-5
O=C(O)c1ccc(C=NNC(=O)c2ccc(F)cc2)cc1	x	1	0	3.4	x	6	x
O=S(=O)(NCc1ccc2c(c1)OCO2)c1c(F)cc(F)cc1Br	-23	2	-5	6.9	3098	3	5
CCOC(=O)N/N=C/c1cn(Cc2ccc(Cl)cc2)c2ccccc12	0	x	x	x	1954	x	2
CCN(CC(=O)Nc1ccc2c(c1)OCCO2)CC(=O)Nc1cc(C)on1	-5	x	x	5.5	5215	0	8
O=C(OCC(=O)N1CCCCCC1)c1ccc(Cl)nc1	-15	14	7	4.9	3858	7	x
Cc1ccccc1CSCC(=O)c1c(N)n(C)c(=O)n(C)c1=O	18	-1	9	-0.5	6922	-3	-2
COc1ccc(CCNC(=O)CCCCCNC(=O)N2CCn3c2nc2ccccc23)cc1OC	-17	10	2	2.1	5034	7	-1
Cc1ccc(S(=O)(=O)N2CCN(C(=O)COC(=O)/C=C/c3ccc(Cl)cc3)CC2)c(C)c1	-13	10	1	2.6	4009	4	x
COc1cc2ccccc2cc1C(=O)Nc1nnc(-c2ccncc2)o1	-27	1	3	3.5	4557	0	-15
CCOC(=O)c1ccc(N2CSC3=C(C#N)C(c4ccc(OC)cc4OC)CC(=O)N3C2)cc1 (stereo not given)	-4	5	5	-6.8	4814	1	-4
CC(O)=C(C#N)C(=O)Nc1cc(Br)ccc1Br	x	5	16	24	x	8	x
O=C(NCCc1ccccc1)c1ccccc1C(=O)NCCc1ccccc1	x	10	3	4.8	x	-2	1
COC(=O)C1=CC(C(=O)OC)C2C3=C(C(=O)C24CCCCC4)C(C)n2c(=O)n(-c4ccccc4)c(=O)n2C3C1 (stereo not given)	x	22	8	8.7	x	2	x
CC(=O)c1cc(C#N)c(NCc2cc(-c3ccccc3)no2)nc1C	-21	9	0	1.1	3075	2	-10
COc1ccccc1NC(=O)/C=C1\NC(=O)CS1	-31	-12	-4	2.1	4227	3	12
CS(=O)(=O)N(CC(=O)Nc1cccnc1)c1ccc2c(c1)OCCO2	-4	5	1	1.1	10102	-3	-8
CC(C)(C)c1ccc(C(=O)NCC(=O)OCC(=O)NC(=O)NC2CCCC2)cc1	-15	-3	6	-1.2	8327	3	x
COc1cccc(/C(O)=C2\C(=O)C(=O)N(c3ccccn3)C2c2ccccc2OC)c1 (stereo not given)	-12	x	x	8.0	3244	3	x
Cc1cc(/C=N/NC(=O)c2ccccn2)c(C)n1-c1cccc([N+](=O)[O-])c1	-45	x	x	x	4560	x	3
Cc1ccccc1CNC(=O)c1ccccc1N(C)S(=O)(=O)c1ccccc1	-1	5	2	3.5	3017	6	-8
Cn1cccc1-c1nc2ccc(NC(=O)c3ccc([N+](=O)[O-])cc3)cc2[nH]1	-42	x	x	x	19889*	x	9
Cc1ccc(CC(=O)Nc2ccccc2-c2ccccc2)cc1C	-6	3	-3	7.4	11163	16	-15
O=C(NCc1ccco1)C(=O)NCC(c1ccco1)N1CCOCC1 (stereo not given)	-1	11	14	1.4	6358	0	0
O=C(Nc1nc2ccc(F)cc2s1)C1CC(=O)N(c2ccc3c(c2)OCCO3)C1 (stereo not given)	-24	-3	7	1.2	8188	-9	x
CC(/C=C/c1ccc2c(c1)OCO2)=N/NC(=O)c1cccnc1	-17	x	x	x	2347	x	-6
CC(C)OCCCNC(=O)CN1C(=O)CSc2ccc(S(=O)(=O)N3CCCCC3)cc21	-8	5	3	0.6	4149	2	7
Cc1cc(OCC(=O)NC(C)C)cc(C)c1Cl	-11	6	11	2.6	3753	-6	6
COc1ccc(N2CC(C(=O)Nc3nnc(SCCC4OCCO4)s3)CC2=O)cc1 (stereo not given)	-10	1	5	-1.3	6615	1	-9
CC(C)CCNC(=O)C1CC(c2cccc(F)c2)=NO1 (stereo not given)	-11	20	22	9.5	4036	2	-9
Cc1cc(Br)ccc1SCC(=O)OCC(=O)NC1CCCC1	-32	-6	-2	0.6	2685	3	-7
(further entries)
SMILES	PrP 5UTR inh	Mtb hypoxia inh	Mtb hypoxia inh growth	Sa RN4220 lethal	Bead autofluor	Sa ugtP lethal	BJeLR viability
COc1cccc(C=N[C@@H](CO)[C@@H](O)c2ccc([N+](=O)[O-])cc2)c1O	3	-3	-6	3.3	3785	4	16
c1ccc(CSc2nnc(Cc3ccccn3)o2)cc1	-17	-6	-4	10	8547	-7	-1
CCC(=O)Nc1ccc(S(=O)(=O)c2ccc(NC(=O)CC)cc2)cc1	-33	0	0	3.7	9952	8	-6
CCC(=NC)C1=C(O)CC(c2ccccc2)CC1=O (stereo not given)	-41	5	7	3.1	3545	11	1
Cc1ccc(-c2nc3ccccc3c(=O)n2-c2ccccn2)cc1	-22	x	x	x	2011	x	-1
O=C(Nc1ccnn1C1CCN(Cc2c(F)cccc2Cl)CC1)C1CCCC1	-8	5	-5	4.5	5361	5	1
O=C1CCCC2=C1C(c1cccs1)CC(=O)N2c1ccc(F)cc1 (stereo not given)	-21	14	9	2.8	3222	4	1
COc1ccc(C(=O)NC(C)Cc2cnccn2)cc1OC1CCN(C(C)C)CC1 (stereo not given)	-30	9	-2	3.2	5291	2	0
COc1ccc(/C(C)=N\n2cnnc2)cc1	-16	x	x	x	5148	x	-4
O=C1CSC(c2cccc(F)c2)N1c1ccccc1 (stereo not given)	3	9	-4	0.1	3154	6	0

Part of the list above, in CSV form.
SMILES,PrP 5UTR inh,Mtb hypoxia inh,Mtb hypoxia inh growth,Sa RN4220 lethal,Bead autofluor,Sa ugtP lethal,BJeLR viability
COc1cccc(C=N[C@@H](CO)[C@@H](O)c2ccc([N+](=O)[O-])cc2)c1O,3,-3,-6,3.3,3785,4,16
c1ccc(CSc2nnc(Cc3ccccn3)o2)cc1,-17,-6,-4,10,8547,-7,-1
CCC(=O)Nc1ccc(S(=O)(=O)c2ccc(NC(=O)CC)cc2)cc1,-33,0,0,3.7,9952,8,-6
CCC(=NC)C1=C(O)CC(c2ccccc2)CC1=O (stereo not given),-41,5,7,3.1,3545,11,1

Later entries.
SMILES	PrP 5UTR inh	Mtb hypoxia inh	Mtb hypoxia inh growth	Sa RN4220 lethal	Bead autofluor	Sa ugtP lethal	BJeLR viability
Cc1ccc(OCCOc2ccc(S(=O)(=O)N3CCCC3)cc2C(N)=O)cc1	2	2	-2	2.8	6598	0	x
C=C(C)C(=O)Nc1cccc(C(C)=O)c1	-7	x	x	x	3811	x	6
CCN(CC)S(=O)(=O)c1ccc(S(=O)(=O)N2CCC(N3CCCCC3)CC2)cc1	-10	x	x	x	2884	x	-2
Cc1cc(C)c(S(=O)(=O)Nc2ccncc2)cc1C	-20	-1	8	2.7	3926	-1	3
O=C(COc1cccnc1[N+](=O)[O-])NCc1ccco1	-10	4	4	4.8	1994	3	-10
COc1ccc(-c2nc3ccccc3s2)cc1	39	8	-5	5.9	2669	9	x
COc1c(C)cc(C(=O)C2CCCN(Cc3cccc4nccnc34)C2)cc1C (stereo not given)	-10	-8	4	1.4	2366	-4	-3
O=C(NC1CCCC1)C(c1c[nH]c2ccccc12)N(C(=O)Cn1nnc(-c2ccc(Cl)cc2)n1)c1ccccc1 (stereo not given)	2	-2	9	-8.3	11658	-30	3
CC(C)C(O)C1CCN(Cc2nc(Cc3ccccc3Cl)no2)CC1 (stereo not given)	-16	16	8	-0.2	2132	8	-2
O=S(=O)(c1cc(Cl)ccc1Br)N1CCCCC1	-40	5	2	3.0	21533*	-1	2
COCCCN(Cc1ccco1)C(=O)Cn1ncc2c([nH]c3ccccc32)c1=O	-22	-7	-2	2.9	5640	3	6
O=C(c1cc2cc([N+](=O)[O-])ccc2s1)N1CCOCC1	-15	11	11	2.3	4242	3	4
COCc1nnc(NC(=O)C2CC(=O)N(c3ccc(C)c(Cl)c3)C2)s1 (stereo not given)	-12	0	23	-0.3	5340	-2	3
Cc1ccc(C(=O)NCC(=O)N2CCCCCC2)cc1	-26	3	-6	5.1	6353	8	-8
CCn1c(C)cc(/C=C2\C(=O)NC(=O)N(c3ccccc3C)C2=O)c1C	-20	5	0	4.3	2233	10	-8
CC(=NNC(=O)CCCOc1ccc(Cl)cc1Cl)c1ccc(C)o1	x	0	1	3.7	x	-3	x
CCCCN(C(=O)c1ccc(N(C)S(=O)(=O)c2ccc(C)cc2)cc1)c1c(N)n(CCC)c(=O)[nH]c1=O	7	-10	8	-2.6	5745	-6	-1

Bioassay records as filed in PubChem.
